Assay outcomes (PubChem BioAssay)
T cruzi inh = inhibitors of intracellular T. cruzi growth, primary screen, luminescence, NIH3T3 host cells | AID 1885, 2009 | inhibition, % (no concentration beside the values) | 300,000 tested, 1.4% active | T. cruzi beta-gal in NIH3T3, 90 h;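 active = mean inhibition across valid replicates above about 55%, limit read from the data; inconclusive = mean below that limit but half or more replicates reach it; inactive = mean below it, under half of replicates reach it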;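 note: signal also drops with host cell toxicity which is not excluded here; 0% = plate median of DMSO wells and 100% = zero luminescence signal; higher percent means less beta-gal luminescence so fewer parasites; stock transfer was 50 nL into about 50 µL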
AF4-AF9 inh = inhibitors of AF4 peptide binding to AF9, primary screen, biochemical, AlphaScreen, biotin-AF4 peptide, FLAG-AF9, single point; 350,000 tested, 0.47% active; inhibition, % at 10 µM; AID 651704, 2012; Protein AF-9 (Homo sapiens), P42568;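 active = every replicate reaching a set inhibition limit, whatever the replicate mean, cut at about 25% in these data; inconclusive = mean inhibition reaches that limit but some replicates miss it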;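 note: 0% = plate neutral control median and 100% = total signal loss; the record names both 10 and 1 µM as test concentration; the first replicate is given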
Calb FLC = C. albicans growth inhibition with fluconazole, primary screen, CaCi-2 strain, Alamar Blue fluorescence; growth inhibition, % (concentration not given with the values); C. albicans CaCi-2 (fluconazole-resistant clinical isolate) + fluconazole, 48 h; 300,000 tested, 0.57% active; AID 1979, 2009;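 active = most replicates above 75%; inconclusive = exactly half above 75%; inactive = most below 75%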;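 note: all wells also contain fluconazole at 8 µg/ml as a sub-toxic cotreatment; 0% = median of DMSO wells and 100% = median of geldanamycin control wells; wells of about 8 µL received 7.5 nL stock; the first replicate is given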
Vif A3G = inhibitors of Vif binding to APOBEC3G peptide, primary screen, biochemical, TR-FRET, GST-Vif 1-94, biotin-A3G peptide, dose response retest (AID 1117319); Virion infectivity factor (Human immunodeficiency virus type 1 group M subtype B (isolate …; TR-FRET GST-Vif / biotin-A3G peptide binding; higher % means a stronger effect; test concentration not given here; strong numbers were not always called active; inhibition, %, or IC50 in µM where a hit was titrated; 260,000 tested, 0.57% active;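 active = above the screen mean plus three standard deviations and confirmed in dose response; inconclusive = results disagree or hit not tested in dose response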;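 note: Vif residues 1-94 fused to GST binding biotinylated APOBEC3G peptide 110-148; 0% = full assay without inhibitor and 100% = GST in place of GST-Vif; retest series ran down from 100 µM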
LANA-H2B inh = blockers of LANA interaction with H2A/H2B – biochemical, FP readout, HTS, primary screen; cell-free LANA-H2A/H2B peptide, fluorescence polarization; 320,000 tested, 0.6% active; inhibition, % (no concentration beside the values); in the data active = inhibition mostly above about 10%, no sharp cut-off; inactive = mostly below about 6.7%;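 note: stock transfer was 7.5 nL into about 10 µL; 0% = median of vehicle wells and 100% = median of positive control wells; one replicate is shown; the record names a cut of 25% in any replicate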
Target sequence (Q9QR71 whole entry, looked up): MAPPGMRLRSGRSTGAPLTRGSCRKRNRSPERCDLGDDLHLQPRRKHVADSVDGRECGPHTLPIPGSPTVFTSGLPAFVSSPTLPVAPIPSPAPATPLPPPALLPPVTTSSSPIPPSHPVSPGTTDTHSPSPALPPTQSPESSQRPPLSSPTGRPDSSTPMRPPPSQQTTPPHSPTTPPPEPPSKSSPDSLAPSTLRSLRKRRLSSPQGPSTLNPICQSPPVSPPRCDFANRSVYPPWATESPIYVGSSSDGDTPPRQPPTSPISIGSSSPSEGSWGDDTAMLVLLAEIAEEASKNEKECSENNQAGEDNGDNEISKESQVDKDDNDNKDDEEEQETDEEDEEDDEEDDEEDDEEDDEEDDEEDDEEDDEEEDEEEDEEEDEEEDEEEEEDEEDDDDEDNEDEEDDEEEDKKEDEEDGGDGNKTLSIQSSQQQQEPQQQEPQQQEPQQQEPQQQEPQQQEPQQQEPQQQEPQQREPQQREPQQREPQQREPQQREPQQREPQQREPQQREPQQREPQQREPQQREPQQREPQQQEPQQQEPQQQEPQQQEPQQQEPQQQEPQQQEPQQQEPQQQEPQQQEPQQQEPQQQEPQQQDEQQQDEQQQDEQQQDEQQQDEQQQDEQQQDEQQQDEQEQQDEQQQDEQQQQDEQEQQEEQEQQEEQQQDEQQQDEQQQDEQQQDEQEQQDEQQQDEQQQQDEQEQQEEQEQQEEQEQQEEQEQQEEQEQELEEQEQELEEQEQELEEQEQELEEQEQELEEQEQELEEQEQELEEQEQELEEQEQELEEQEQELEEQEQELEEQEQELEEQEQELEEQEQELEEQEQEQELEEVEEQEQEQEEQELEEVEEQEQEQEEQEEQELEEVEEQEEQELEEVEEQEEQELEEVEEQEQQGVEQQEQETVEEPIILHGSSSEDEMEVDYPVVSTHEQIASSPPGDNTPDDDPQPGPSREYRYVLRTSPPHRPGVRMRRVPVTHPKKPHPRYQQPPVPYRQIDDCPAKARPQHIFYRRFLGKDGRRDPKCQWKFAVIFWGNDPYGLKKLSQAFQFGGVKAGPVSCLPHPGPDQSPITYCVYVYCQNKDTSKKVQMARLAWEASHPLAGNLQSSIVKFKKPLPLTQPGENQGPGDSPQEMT
Beta apoptosis = inhibitors of cytokine-induced beta cell apoptosis, primary screen, luminescence; protection from apoptosis, % (test concentration not listed); 300,000 tested, 0.8% active; INS-1E cytokine-induced death, ATP luminescence, 48 h; percent of positive-control rescue, neutral wells zero;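 active = all replicates at 75% or more, or half of them and the mean; inconclusive = half reach 75% but not the mean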;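 note: 0% = cytokine-treated negative control wells and 100% = positive control rescue; higher means more ATP so stronger rescue from cytokine killing; wells of about 40 µL received 100 nL stock; the first replicate is given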
A1 inh = caspase 3/7 activation in MEF A1-2A-BIM cells, primary screen, A1 inhibitor project, cell-based, luminescence, HTS; Caspase-Glo 3/7 luminescence, 3 h; percent of clofoctol response, vehicle zero; caspase activation, % (no concentration beside the values); 330,000 tested, 0.066% active; AID 2462, 2010;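 active = over half of replicate activation scores above 10%, or exactly half above 10 with the replicate mean above 10; inconclusive = replicate mean below 10 yet half the replicates above 10; inactive = over half of replicates below 10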;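 note: wells of about 30 µL received 50 nL stock; many hits fall short of the cut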
RanGTP-Imp inh = inhibitors of RanGTP-importin-beta interaction, primary screen, biochemical, FRET, CFP-Ran, YFP-importin-beta, homogeneous; cell-free CFP-Ran/YFP-importin-beta FRET ratio; inhibition, % (concentration not given with the values); 300,000 tested, 1.1% active;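 active = most replicates above 15%; inconclusive = exactly half above 15%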;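 note: 0% = DMSO wells and 100% = Ran loaded with GDP instead of GTP; wells of about 40 µL received 100 nL stock; the first replicate is given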
* = called active by the depositor; ? = inconclusive; . = not tested or not shown.

SMILES	T cruzi inh	AF4-AF9 inh	Calb FLC	Vif A3G	LANA-H2B inh	Beta apoptosis	A1 inh	RanGTP-Imp inh
CCOC(=O)N1CCC(N2CCCC(C(=O)c3ccccc3OC)C2)CC1 (stereo not given)	12	-12	-19	-9%	-5.1	-2	-0.2	-2.6
COc1cccc2cc(C(=O)NCc3ccccc3)c(=N)oc12	-6	0.1	0	.	0.0	2	-0.6	-2.8
COc1cccc(C(=O)NC2CCN(CC(=O)Nc3cccc(C)c3C)CC2)c1	5	-2.5	-7	.	-2.1	1	-0.2	4.4
O=C(Cc1ccccc1)NNC1=NS(=O)(=O)c2ccccc21	-12	-2.3	-1	.	3.5	1	-0.2	-0.9
CCCCOc1ccc(S(=O)(=O)N2CCCCCC2)cc1	6	.	-2	17%	-8.1	-4	-1.7	-2.4
COc1cccc(NC(=O)c2cc(Cl)nnc2Cl)c1	-32	-0.5	4	5%	0.6	-2	0.3	-1.7
COCCN(CCOC)Cc1c(O)ccc2c3c(c(=O)oc12)CCC3	-3	.	-5	?	1.4	.	0.2	-2.0
COc1cc(C=O)c(Br)cc1OC1CCCC1	1	.	6	-3%	0.4	-5	0.8	2.2
O=C(CSc1nncc(=O)[nH]1)NC1CCCCC1	-8	0.2	-3	.	-8.7	-7	-0.2	8.2
O=C1CCSc2ccc(Cl)cc2N1Cc1ccccc1	10	.	12	1%	1.5	4	0.1	6.1
CCOP(=O)(OCC)C(Nc1cccc(C(F)(F)F)c1)c1ccc(C)cc1 (stereo not given)	5	1.6	-19	.	-2.7	7	1.5	5.3
O=C(c1cnc2sccn2c1=O)N1CCN(c2ccccc2Cl)CC1	0	-2.9	2	.	1.3	2	-0.4	-3.0
O=c1cc(C(F)(F)F)[nH]c2c(OC(F)(F)F)cccc12	-20	-2.5	0	-4%	0.1	6	-0.5	-1.7
CCCCC(=O)Nc1cccc(-c2ccc3nncn3n2)c1	-22	0.2	1	-5%	0.3	5	0.9	2.5
O=C(NNC(=S)NCc1ccccc1)c1ccc(OC(F)F)cc1	-6	-11	24	5%	-2.1	-2	-0.5	-2.8
COC(=O)[C@]1(Cc2ccccc2)N[C@H](c2ccc(-c3ccc(OC)cc3)cc2)[C@@H]2C(=O)N(C)C(=O)[C@@H]21	-10	-6.6	1	.	6.0	.	-0.7	0.8
CCOC(=O)c1sc(=S)n(-c2ccccc2OC)c1N	-12	.	52	-1%	-4.4	0	0.0	3.7
O=C(O)C1CC(=O)N(c2ccc(OCc3c(F)cccc3Cl)cc2)C1 (stereo not given)	5	.	-8	-4%	1.9	-2	0.1	-1.1
COc1cc(N(C)C)c([N+](=O)[O-])cc1C(=O)N1CCN(Cc2ccccc2)CC1	2	2.4	?	12%	4.7	-25	0.3	-1.8
Cc1nc2ccccn2c1/C(O)=C1\C(=O)C(=O)N(CCCn2ccnc2)C1c1ccncc1 (stereo not given)	1	.	-15	65%	-0.4	-3	-0.4	5.9
COC(=O)c1ccccc1NC(=O)Nc1ncccc1C	-13	0.6	18	.	-2.8	-5	-0.1	0.1
CCCCc1cc(=O)oc2cc(OCC(=O)Nc3ccccn3)ccc12	2	-2.0	4	.	2.3	-3	-3.9	0.1
Cc1nnc(NC(=O)c2ccccc2Br)s1	-11	.	25	-5%	-6.4	-1	-0.2	4.3
COC(=O)c1cnc(Oc2ccc(NC(=O)NC(=O)c3c(F)cccc3F)cc2)cc1C(F)(F)F	-9	-2.5	-11	-3%	-3.6	0	0.4	1.2
COC(=O)c1cc(NC(=O)c2cc(-c3ccc(OC)cc3)oc2C(F)(F)F)ccc1N1CCOCC1	45	4.5	13	.	1.0	1	-0.1	3.2

Later entries
SMILES	T cruzi inh	AF4-AF9 inh	Calb FLC	Vif A3G	LANA-H2B inh	Beta apoptosis	A1 inh	RanGTP-Imp inh
Cc1ccc(OCCN2C(=O)NC3(CCc4ccccc4C3)C2=O)cc1 (stereo not given)	7	-3.1	3	-2%	0.9	-10	0.3	-1.8
Cc1c(NC(=O)C(C)OC(=O)c2cccnc2)c(=O)n(-c2ccccc2)n1C (stereo not given)	-28	-4.5	6	-1%	4.9	-2	-0.2	-4.7
O=C(NCCC(=O)N(Cc1ccco1)Cc1cccs1)c1ccccc1Cl	.	0.5	.	.	8.9	5	0.0	.
CN(C)C(=O)c1c(NC(=O)c2ccccc2)sc2c1CCC2	2	-2.5	11	.	-2.5	2	-1.1	1.1
C#CCNc1cc(-c2ccccc2)nc2ncnn12	-5	-0.2	7	-10%	6.0	6	0.3	8.2
COc1ccccc1/C=C/C(=O)NCC(=O)N1CCC(N(C)C2CCCC2)CC1	4	-0.7	2	.	-6.8	-6	1.1	-5.4
CCOC(=O)c1nn(-c2ccccc2)c(=O)cc1OCC(=O)Nc1cc(C)ccc1OC	-1	-5.8	-4	-7%	.	-3	0.3	-1.0
CCOC(=O)c1sc2nc(CC(=O)OC)nc(NCC(=O)OC)c2c1C	-6	8.4	0	-6%	2.2	-1	0.3	-1.7
COc1cc(C2C(C(=O)c3cc4ccccc4o3)=C(O)C(=O)N2CCN2CCOCC2)ccc1OCCC(C)C (stereo not given)	6	5.7	-3	.	.	.	.	-2.2
CC(C)(C)n1nnnc1C(c1cccs1)N1CCCc2ccccc21 (stereo not given)	18	.	6	3%	1.9	2	-0.1	0.8
CCN(C(=O)c1ccc2c(=O)n3c(nc2c1)CCCCC3)c1ccccc1C	-5	-6.7	-4	.	4.9	.	3.7	4.7
CCOc1cc(CNc2ccc(S(N)(=O)=O)cc2)cc(Cl)c1OC	-20	.	-5	-2%	-1.6	-7	0.6	?
CCOC(=O)Cc1csc(NC(=O)/C=C\c2ccccc2Cl)n1	-88	0.8	-17	-1%	-0.4	-2	-1.7	1.0
Cc1sc2nc(C(C)C)nc(SCC(=O)N3CCOCC3)c2c1C	-1	-4.8	0	.	1.2	-1	-0.2	0.3
C=CCn1c(-c2csc3c2CCC(C)C3)n[nH]c1=S (stereo not given)	-5	0.7	-34	4%	2.5	18	-0.4	6.3
Cn1c(=O)n(C)c2cc(/C=N/NC(=O)c3ccc(Cl)cc3Cl)ccc21	1	.	44	0%	-1.1	-5	0.4	1.4
CSCC[C@H](NC(=O)OC(C)(C)C)C(=O)N/N=C/c1cc2ccc(C)cc2nc1Cl	23	.	14	-11%	-1.3	-11	-0.1	0.7
COc1ccccc1OCCCCN1CCCCC1	18	0.6	7	2%	1.9	-3	-0.9	-0.1
CC(C)(C)NCCOc1ccc2ccccc2c1	-23	-3.7	-8	-2%	-0.7	-1	0.9	32*
O=C(COc1ncnc2sccc12)Nc1cccc(S(=O)(=O)N2CCCC2)c1	-2	-1.8	1	7%	-4.9	0	0.4	3.9
CC1=NN(c2ccccc2)C(=O)/C1=C/c1cccs1	0	.	-4	-1%	4.9	.	-0.6	2.8
Cc1cc(C)nc(NS(=O)(=O)c2ccc(NC(=O)c3cc4c(=O)n5cccc(C)c5nc4n3C)cc2)n1	9	.	-2	1%	1.7	-3	0.9	5.7
Cc1ccc(NC(N)=S)cc1C	0	-2.5	-8	.	4.7	-11	0.4	0.3
Cc1c(C(=O)OCC(=O)NCc2ccco2)oc2ccccc12	.	-2.8	.	0%	-2.1	-2	-0.6	.
CC(C(=O)OCC(=O)N1CCCCC1)N1C(=O)c2ccccc2C1=O (stereo not given)	.	1.1	.	.	-2.3	1	1.6	.

In another format: entries from further up.
Results follow in this order: T cruzi inh	AF4-AF9 inh	Calb FLC	Vif A3G	LANA-H2B inh	Beta apoptosis	A1 inh	RanGTP-Imp inh
COc1ccccc1OCCCCN1CCCCC1
→ 18	0.6	7	2%	1.9	-3	-0.9	-0.1
CC(C)(C)NCCOc1ccc2ccccc2c1
→ -23	-3.7	-8	-2%	-0.7	-1	0.9	32*

(next part)
SMILES	T cruzi inh	AF4-AF9 inh	Calb FLC	Vif A3G	LANA-H2B inh	Beta apoptosis	A1 inh	RanGTP-Imp inh
Cc1ccc(NC(=O)CCC(=O)OCC(=O)c2ccc(Oc3ccc([N+](=O)[O-])cc3)cc2)cc1C	3	.	15	18%	-3.0	-4	1.1	6.0
COc1ccccc1N(C)S(=O)(=O)c1ccc(C(=O)OCC(=O)N(C)c2ccccc2)cc1	-4	1.9	-15	6%	-4.6	1	-0.2	0.0
COC(=O)c1ccccc1NC(=O)c1ccc(COc2cc(C)cc(C)c2)o1	15	.	12	9%	0.0	-7	0.5	10
O=C(Nc1cc(Cl)ccc1Oc1ccccc1)C1=COCCO1	21	-16	-4	8%	-3.0	-5	1.7	.
O=C(CN1CCN(Cc2ccccc2)CC1)Nc1ccc(F)c(F)c1	-12	4.1	0	.	0.8	-7	1.3	0.7
COc1ccc(O)c(/C=N/Nc2nc(C)cc(-c3ccccc3)n2)c1	-7	9.0	2	.	0.1	5	0.0	4.0
O=C(N/C(=C/c1ccc([N+](=O)[O-])cc1)C(=O)N1CCCC1)c1ccccc1	-6	-0.4	15	-4%	6.0	-3	1.0	2.5
Brc1ccc(/C=N/Nc2nc3ccccc3o2)cc1	-24	4.2	-4	-3%	-0.7	-1	-1.7	2.8
CCC(=O)c1ccc(OCC(=O)NCC2COc3ccccc3O2)cc1 (stereo not given)	.	?	.	-1%	6.7	2	0.1	.
Nc1nonc1-n1nnc(C(=O)N/N=C/c2ccncc2)c1CSc1ccc(Cl)cc1	4	-1.3	-11	.	-2.2	-10	0.7	2.8
CCOP(=O)(OCC)C1NC(=O)N(c2ccccc2)C1=O (stereo not given)	-7	-10	3	-1%	-1.6	0	-0.4	-2.0
COc1cc(/C=N/NC(=O)CSCc2ccc([N+](=O)[O-])cc2)cc(OC)c1OC	-4	.	6	18%	-3.9	-3	-0.6	1.4
CCNC(=S)Nn1cnc2ccccc21	-3	3.0	8	10%	-1.4	-5	0.5	-5.9
CCOC(=O)C1=C(CC)OC(N)=C(C#N)C1c1ccsc1 (stereo not given)	-24	.	-5	12%	0.6	-3	-0.4	-3.5
O=C(NCc1cnn(-c2ccccc2)c1)C1CCC(=O)N(C2CC2)C1 (stereo not given)	-18	-0.5	-6	.	0.7	-1	0.2	1.4
O=C(Cn1ncc2c3ccccc3n(Cc3ccccc3)c2c1=O)NC1CCCC1	3	-4.5	10	-1%	-3.0	-1	-1.0	-6.7
CC(=O)c1ccc(NC(=O)CSC2=NS(=O)(=O)c3cc(Cl)ccc3N2)cc1	0	0.5	1	-9%	.	-11	0.1	-5.5
CC(C)NC(=O)c1nc2ccccc2s1	-8	.	-4	6%	-0.5	-5	0.0	6.8
Cc1c(OCC(=O)NCCCN2CCCC2=O)ccc2c3c(c(=O)oc12)CCCC3	19	-1.6	4	.	0.3	10	-0.5	-0.6
Cc1ccc(NC2=C(Cl)C(=O)OC2OC(=O)c2ccc(C)cc2)cc1 (stereo not given)	-4	-0.2	-3	-7%	-4.9	-2	0.5	2.4
CCCn1c(-c2nonc2N)nc2ccccc21	-7	.	-11	1%	-0.3	-2	0.0	7.7

No enrichment for hits. Share with any hit: about 4.3%.
